Screening data (PubChem)
D2 PAM: potentiates the human D2 dopamine receptor allosterically; AID 624464; DiscoveRx D2 beta-arrestin cells, luminescence, 90 min; 100% = 57 uM dopamine signal; potentiation, % (no concentration beside the values); actives 0.23% (n = 360,000); active = potentiation of 50% or more; inconclusive = 30% to 50%; inactive = 30% or less;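 also: compound concentration not given in the record; tested on top of an EC20 dose of dopamine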
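PathHunter D2 cells, attached overnight at 37 deg C, received compound in DMSO plus dopamine at EC20 (50 nM final) for 90 min at 37 deg C. Beta-arrestin recruitment was read as luminescence after 1 h with detection reagent at ambient temperature.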
Six1-Eya2 inh: blocks human Six1 binding to Eya2. AlphaScreen GST-Six1/His-Eya2 binding, biochemical; active compounds read low; control for the full effect not named in the record. activity change, % (concentration not given with the values). actives 0.56% (n = 360,000). AID 651725; in the data active = activity change below about -65%; inconclusive = about -30% to -65%; inactive = above about -30%; also: % is scaled to controls: 0 for no effect and ±100 for the full control effect
Target sequence (O00167 whole entry, looked up): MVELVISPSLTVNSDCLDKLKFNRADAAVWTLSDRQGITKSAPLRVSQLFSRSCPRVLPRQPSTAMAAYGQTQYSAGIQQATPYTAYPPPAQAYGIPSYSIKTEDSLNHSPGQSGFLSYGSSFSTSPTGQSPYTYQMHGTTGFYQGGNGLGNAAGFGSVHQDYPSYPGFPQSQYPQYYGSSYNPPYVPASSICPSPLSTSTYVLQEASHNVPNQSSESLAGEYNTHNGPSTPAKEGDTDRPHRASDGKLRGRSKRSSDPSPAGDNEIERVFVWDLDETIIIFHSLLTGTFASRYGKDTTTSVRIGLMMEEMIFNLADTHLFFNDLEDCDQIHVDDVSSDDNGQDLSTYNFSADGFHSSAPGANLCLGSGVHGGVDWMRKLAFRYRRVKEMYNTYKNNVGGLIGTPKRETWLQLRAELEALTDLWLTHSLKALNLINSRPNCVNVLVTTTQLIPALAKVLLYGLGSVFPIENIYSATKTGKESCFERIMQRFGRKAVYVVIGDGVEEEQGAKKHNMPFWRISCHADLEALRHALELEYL
Target sequence (Q15475 whole entry, looked up): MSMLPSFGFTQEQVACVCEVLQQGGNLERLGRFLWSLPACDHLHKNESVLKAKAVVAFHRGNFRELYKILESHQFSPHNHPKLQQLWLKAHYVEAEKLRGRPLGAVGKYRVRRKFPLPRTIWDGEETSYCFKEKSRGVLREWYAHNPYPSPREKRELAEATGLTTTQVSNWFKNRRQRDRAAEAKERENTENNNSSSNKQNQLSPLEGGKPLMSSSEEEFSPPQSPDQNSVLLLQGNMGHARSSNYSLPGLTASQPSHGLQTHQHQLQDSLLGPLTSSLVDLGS
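AlphaScreen with GST-Six1 and His-Eya2 (5X mix: 250 nM and 500 nM), glutathione donor and nickel acceptor beads; buffer 50 mM Tris pH 8.0, 300 mM NaCl, 1 mM TCEP; 1 h at 37 C in the dark.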
PINK1 expr mod: PINK1 expression modulation | PINK1 immunofluorescence, high-content cytometry, 24 h | Potency, µM (series often up to 76.6 µM), for inactives: at the highest dose activation (PINK1 increase), usual class: activators | actives 0.2% (n = 410,000) | AID 624263; active = well fitted activation curve with a large enough effect; inconclusive = small, poorly fitted or top-dose-only effect; inactive = flat fitted curve, though single readings scatter; cell line not stated here;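 also: potency is read from the fitted curve at half-maximal effect; % of control where 0% means no effect; nearly all actives have a fitted effect of over 65% in size; a mitochondrial uncoupler was the plate control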
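Stable cell line treated 24 h with compounds at 5 concentrations (CCCP controls), then fixed and immunostained for PINK1 plus nuclear and cell stains; PINK1 immunofluorescence quantified by laser-scanning microplate cytometry.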
TRPML1 inh: inhibitors of human TRPML1 channel. activity change, negative = inhibition, % (test concentration not listed). actives 0.02% (n = 390,000). TRPML1-inducible cells, Ca2+ dye fluorescence, FDSS; active compounds read low; inhibition of EC80 agonist-evoked calcium signal. AID 624415; in the data active means activity change below about -50%; inconclusive means about -30% to -50%; inactive means above about -30%;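 also: stimulus is agonist 54-4 at its EC80 concentration; % is scaled to controls: 0 for no effect and ±100 for the full control effect; compound concentration not given in the record; the text of the record puts the active cut at -80%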
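Calcium fluorescence in TRPML1-DL cells induced overnight with Tet: a 110 s read after compound pin addition, then a 110 s antagonist read after challenge with 54-4 at 4 uM final (EC80).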
TRPML1 ag: agonists of human TRPML1 channel; Q9GZU1; TRPML1-expressing cells, Ca2+ dye fluorescence, FDSS; host cell line not named in the record; reference of the full effect not given here; activation, % (concentration not given with the values); actives 0.12% (n = 410,000); AID 624414; in the data active = activation above about 50%; inconclusive = about 30% to 50%; inactive = below about 30%; also: 0% is about no effect; the text of the record puts the active cut at 80%
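Kinetic FDSS Ca2+ read in Tet-induced TRPML1-DL cells (ABD Ca8 dye plus quencher, 45-90 min RT loading): baseline, then compound, then 110 s agonist window; EC80 agonist 54-4 at 4uM final added afterwards for a 110 s antagonist window.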
D2 agonist: agonists of human D2 dopamine receptor (beta-arrestin); AID 624465; activation, % (concentration not given with the values); P14416; DiscoveRx PathHunter D2 beta-arrestin, luminescence, 90 min; 100% = 57 uM dopamine signal; actives 0.084% (n = 360,000); in the data active = activation above about 40%; inconclusive = about 15% to 40%; inactive = below about 15%; also: compound concentration not given in the record; the text of the record calls up to 30% inactive
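Agonist mode: compounds alone added to overnight-plated D2 PathHunter cells for 90 min at 37 C, with 57 uM final dopamine (EC100) defining full response. Beta-arrestin recruitment detected by chemiluminescent reagent, read after 1 h at ambient temperature.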
An asterisk follows results filed as active; ? = inconclusive; nt = no result given; & = joins results of further samples; [ ] = remark or other dose.

The line under a structure holds: D2 PAM	Six1-Eya2 inh	PINK1 expr mod	TRPML1 inh	TRPML1 ag	D2 agonist
> Cc1cc(N2CCN(C(=O)/C=C/C(=O)O)CC2)c2ccccc2n1
 : -8.3	18.0	0.8%	-10.4	0.6	-8.7
> CCN(C)C1CN(Cc2cn(Cc3ccc(Cl)cc3)nn2)S(=O)(=O)C1 (stereo unspecified)
 : nt	0.6	-0.6%	nt	-0.3	nt
> Cc1ccc(CN(C(=O)COc2ccc(Br)cc2)c2ccccn2)o1
 : nt	nt	1.2%	6.0	-0.6	nt
> COc1ccc(S(=O)(=O)N2CCN(c3ccccc3OC)CC2)cc1C(=O)N1CCCCC1
 : 10.2	5.0	1.2%	-5.5	0.1	-6.4
> Oc1c(/C=N/Nc2cccc3cccnc23)ccc2ccccc12
 : ?	2.8	?	3.8	-0.2	6.9
> CC(=O)c1ccccc1NS(=O)(=O)c1ccccc1Cl
 : -5.7	9.7	3.1%	13.3	1.9	1.5
> COc1ccc(C(C)(C)C)cc1NC(=O)COC(=O)c1nc2nccc(C)n2n1
 : -20.3	6.3	0.4%	3.5	0.6	-4.0
> CC1CC(C)CN(c2nc3c(c(=O)[nH]c(=O)n3C)n2CCCSc2nc3ccccc3s2)C1 (stereo unspecified)
 : -16.6	0.2	7.7%	-0.6	0.4	-0.7
> O=c1cc(O)c2ccccc2n1Cc1ccccc1Cl
 : 6.1	1.8	2.5%	-14.7	0.2	0.6
> CC(=O)c1cccc(NC(=O)C(C)n2c(=O)cc(-c3ccccc3)c3c(C)nn(C)c32)c1 (stereo unspecified)
 : nt	nt	3.8%	28.1	3.4	nt
> COCCCNC(=S)Nc1ccc(S(=O)(=O)Nc2cc(OC)nc(OC)n2)cc1
 : -17.5	-0.8	-0.6%	-18.5	-0.2	-3.4
> Cc1ccc(Cn2cc(S(=O)(=O)c3ccccc3)c(=O)c3cc(F)c(N4CCOCC4)cc32)cc1
 : nt	nt	0.7%	-9.4	0.4	nt
> O=C(CCC(=O)OCC(=O)c1ccccc1)Nc1cccc2cccnc12
 : -9.4	-0.1	nt	5.8	0.3	-2.1
> O=C(NCc1cccc(Cl)c1)c1ccc2nc(N3CCOCC3)sc2c1
 : -5.1	-6.9	0.3%	-1.1	1.1	-2.1
> CC1=C(C(=O)OCC(C)C)C(c2cccc(F)c2)N2C(=O)C(C)SC2=N1 (stereo unspecified)
 : -2.1	-8.0	2.1%	1.2	0.9	-3.2
> O=c1cc2nc(-c3cccs3)nc(SCCOc3ccc(Cl)cc3)n2[nH]1
 : nt	nt	2.9%	1.9	1.6	nt
> Cc1c(NC(=O)CCC2CCCCC2)c(=O)n(-c2ccccc2)n1C
 : 5.6	3.5	nt	-8.3	-0.3	0.3
> CCCCOC(=O)CSC1=C(C#N)C(c2ccc3c(c2)OCO3)CC(=O)N1 (stereo unspecified)
 : 2.2	-1.4	5.7%	2.1	-0.1	-1.3
> CCC(C)[C@H](NC(=O)N1CCC(Cc2ccccc2)CC1)C(=O)O (stereo partly specified)
 : -7.2	5.8	0.4%	0.8	1.4	-5.2
> COc1ccc(OC)c(-c2c3c([nH]c(=S)c2C#N)CCCC3)c1
 : -11.6	0.2	-0.4%	2.1	0.8	-5.2
> O=C(COC(=O)C1CCN(c2ccc(C(F)(F)F)cn2)CC1)c1ccc(F)cc1
 : -29.5	12.7	-1.3%	-2.5	6.6	-4.2
> O=C(CSCc1c(F)cccc1Cl)NCCSCc1ccco1
 : -1.3	-8.2	0.0%	0.5	-0.3	0.2
> CCOc1ccc(C(=O)Nc2cccc(NC(=O)c3ccc(Cl)cc3Cl)c2)cc1
 : nt	nt	1.2%	-23.0	1.8	nt
> CCN(CC)c1cc(C)c2cc(NC(=O)c3ccccc3OC)ccc2n1
 : -2.4	20.8	?	0.1&-4.8	0.1&-0.2	-3.6
> O=C(COC(=O)COc1ccc(Br)cc1)Nc1ccc2c(c1)OCCO2
 : 13.9	-3.4	0.3%	32.6	-1.3	3.1
> CCC(Oc1ccccc1)C(=O)NCCCN1CCOCC1 (stereo unspecified)
 : -9.5	2.4	1.1%	-1.6	0.7	-3.5
> Cn1cncc1C#Cc1c(C=O)[nH]c2ccccc12
 : -14.2	-15.1	-0.5%	-13.1	-0.9	-0.4
> COc1ccc(/C=C2/SC(=S)N(CCC(=O)O)C2=O)cc1
 : -7.5	-4.9	0.4%[38.3 µM]	-3.6	0.3	2.8
> COc1ccc(CN(CCC(c2ccccc2)C2CCOC(C)(C)C2)C(C)=O)cc1 (stereo unspecified)
 : -5.6	-8.9	4.7%	12.0	-1.4	0.6
> CC(=O)c1c(C)[nH]c(C(=O)Nc2ccc(C)cn2)c1C
 : -20.6	-0.6	0.2%	8.0	-0.5	-3.6

(further entries)
The line under a structure holds: D2 PAM	Six1-Eya2 inh	PINK1 expr mod	TRPML1 inh	TRPML1 ag	D2 agonist
> CC1CN(C(=O)COC(=O)/C=C/c2ccc(C(F)(F)F)cc2)CC(C)O1 (stereo unspecified)
 : -9.7	5.8	4.1%	15.9	1.8	1.6
> CCc1ccc(NC(=S)Nc2ccc(S(=O)(=O)Nc3ncccn3)cc2)cc1
 : -10.5	5.6	0.0%	-4.8	0.3	-2.1
> Cc1ccc(S(=O)(=O)N2CCCCC2C(=O)O)s1 (stereo unspecified)
 : 4.8	-3.0	-1.6%	-6.2	0.1	-3.4
> C/C(=N\N1CCN(C)CC1)c1ccc(Cl)c(Cl)c1
 : -8.5	1.0	-0.4%	15.0	0.9	-3.0
> Fc1cc(F)c2nc(N3CCCC3)sc2c1
 : 2.8	18.2	0.7%	23.0	2.2	-2.8
> COc1ccc(OC)c(CNC(=O)Cn2nc(C)c3c(C)n(-c4ccccc4)nc3c2=O)c1
 : nt	nt	-1.0%	-15.7	-1.1	nt
> C=CCN(C(=O)CCC(=O)Nc1cc(C)on1)C(C(=O)NC(C)(C)C)c1ccc(OC)cc1 (stereo unspecified)
 : -3.0	4.3	0.4%	-6.5	-1.5	-1.3
> O=C(Cc1ccccc1)NC(C(=O)O)C(O)c1ccc([N+](=O)[O-])cc1 (stereo unspecified)
 : -9.2	-6.8	-0.1%	-5.1	0.9	1.5
> COc1ccc(OCc2cccc(C(=O)Nc3cc(C)on3)c2)cc1
 : -7.5	-1.1	10.1%	-6.8	2.2	-6.4
> CC(=O)c1ccccc1N(C(=O)Cn1nnc2ccccc21)C(C(=O)NCC1CCCO1)c1ccc(N2CCOCC2)cc1 (stereo unspecified)
 : -3.6	1.3	2.9%	4.0	1.0	-3.1
> COC(=O)Cn1nc(-c2ccccc2)c2ccccc21
 : -3.2	6.9	3.2%	-7.9	-0.7	-2.8
> COc1ccc(OCCOC(=O)c2ccc(-n3cnnn3)cc2)cc1
 : 7.5	-3.8	0.5%	16.7	4.7	-2.1
> O=C(c1ccc(N2C(=O)CCC2=O)cc1)N1CCCSC1=Nc1ccccc1
 : -10.2	7.4	-0.4%	-5.7	-0.5	-1.2
> COC(=O)Cc1cccc2c(=O)c3ccccc3oc12
 : 0.6	2.1	2.4%	24.2	0.3	-0.2
> O=C(O)c1cccc(-c2ccc(/C=N/NC(=O)c3cccnc3)o2)c1
 : 9.3	?	-0.9%	0.4	-0.6	-1.9
> Cc1ccccc1N1C(=O)c2ccccc2NC1c1ccncc1 (stereo unspecified)
 : 5.5	0.1	1.9%	6.4	-0.2	-0.6
> c1cc2cc(CNc3nc(NCC4CC4)nc4ccsc34)ccc2o1
 : -13.7	-26.2	?	nt	-1.3	-5.7
> COc1ccc(/C=C(/NC(=O)c2ccccc2)C(=O)N2CCCCC2)cc1OC
 : -9.8	-3.0	-1.2%	27.3	-0.4	-7.1
> CCc1ccccc1NC(=O)CNC(=O)CSC(=S)N1CCCC1
 : -3.4	4.6	-0.2%	2.5	-0.7	5.6
> O=C(/C=C/c1cccc([N+](=O)[O-])c1)OCC1CCCO1 (stereo unspecified)
 : -0.3	0.4	0.6%	24.3	0.3	0.0
> COc1ccc(S(=O)(=O)NCCOc2ccc(Cl)cc2)cc1
 : -3.7	5.0	2.0%	-19.3	0.8	-0.2
> N#Cc1ccccc1Sc1ccccc1C(=O)NCC(c1ccco1)N1CCCCC1 (stereo unspecified)
 : -29.0	-0.6	0.1%	29.1	-0.9	-1.3
> COc1ccc(OC)c(S(=O)(=O)NCC(c2cccs2)S(=O)(=O)c2ccc(F)cc2)c1 (stereo unspecified)
 : nt	nt	3.2%	-29.0	1.4	nt
> O=C(Nc1ccccc1Cl)C1CC(=O)N(c2ccccc2)C1 (stereo unspecified)
 : -0.9	-0.4	0.8%	-17.2	0.4	-1.5
> COc1ccc(N(CC(=O)NC2CCCCC2)C(=O)c2ccc(C)s2)c(OC)c1
 : -4.2	-2.8	2.5%	9.9	-1.3	-5.0
> O=C1CSc2cc(Cl)ccc2N1
 : -6.5	-4.2	1.7%	23.6	2.1	-1.1
> COC(=O)c1c(C)oc2ccc(N(C(=O)c3ccncc3)S(=O)(=O)c3ccccc3)cc12
 : 0.4	-24.6	3.8%	4.5	0.5	-2.3
> Fc1ccc(CSc2ncnc3sc4c(c23)CCCC4)cc1
 : -9.2	12.9	7.9%	0.3	-0.9	-0.7
> Cc1cc2oc(C(=O)Nc3ccc(S(=O)(=O)Nc4ncccn4)cc3)c(C)c2cc1Cl
 : -23.6	9.5	9.4%	44.6	0.4	-2.2
> CCOC(=O)C1CCC(CN(Cc2ccc(Cl)cc2)S(=O)(=O)c2ccc(Br)cc2)CC1 (stereo unspecified)
 : nt	nt	0.1%	27.7	0.7	nt

(further entries)
The line under a structure holds: D2 PAM	Six1-Eya2 inh	PINK1 expr mod	TRPML1 inh	TRPML1 ag	D2 agonist
> CC(=O)NCCNC(=O)[C@H](Cc1ccccc1)NC(=O)c1cccs1
 : -6.7	13.4	1.1%	-17.6	0.4	-1.2
> COc1ccc(C(=O)CCN2CCN(c3ccccc3F)CC2)cc1
 : -34.7	-4.0	-0.9%	nt	nt	1.9
> CCOC(=O)C1CCN(C(=O)CN(c2ccc(OC)cc2)S(=O)(=O)c2c(C)noc2C)CC1
 : -13.3	1.8	1.0%	5.5	-0.1	-5.0
> COc1ccc(/C=N/n2c(SC)nnc(C(C)(C)C)c2=O)cc1OC
 : -0.6	-17.6	13.3%	2.1	-0.3	-0.5
> COCCNC(=O)C(c1ccncc1)N(C(=O)c1sc(C)nc1C)c1cccc(C)c1 (stereo unspecified)
 : -10.5	3.6	2.6%	-5.0	0.3	-3.1
> CC(CNC(=O)c1ccc(CSc2nc3ccncc3n2Cc2ccccc2)cc1)c1ccccc1 (stereo unspecified)
 : nt	nt	1.0%	15.8	0.7	nt
> CCCCN(C(=O)C1CC(=O)N(Cc2ccc(C)cc2)C1)c1c(N)n(CC(C)C)c(=O)[nH]c1=O (stereo unspecified)
 : -14.2	1.8	0.1%	-14.2	-0.5	-5.3
> Cc1ccc(NC(=O)CN2C(=O)N/C(=C/c3ccc(C)o3)C2=O)cc1
 : -15.5	7.7	3.7%	-13.2	0.4	-3.8
> COc1ccc(Cl)cc1S(=O)(=O)N(C)CC(=O)N1CCCC1
 : 1.6	8.8	0.8%	-10.0	-0.9	5.0
> CCOc1ccc(-n2c(N)c(C(=O)NCc3ccco3)c3nc4ccccc4nc32)cc1
 : -14.0	-25.1	1.5%	44.0	-1.0	-7.9
